# GIV-Gai inh = inhibitors of GIV GBA-motif binding to rat Galpha-i3. P08753. percent of control (FP), % (concentration not given with the values). Galpha-i3/FITC-GIV peptide fluorescence polarization, 90 min; hits give low values; scaled: aluminum fluoride 0%, vehicle 100%. AID 1224905. 210,000 compounds, 0.42% hits;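 active means replicate mean at 85% of control or lower, very high polarization wells dropped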;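 further: wells of about 15 µL received 100 nL stock; the first replicate is given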
# Target sequence (P08753 whole entry, looked up): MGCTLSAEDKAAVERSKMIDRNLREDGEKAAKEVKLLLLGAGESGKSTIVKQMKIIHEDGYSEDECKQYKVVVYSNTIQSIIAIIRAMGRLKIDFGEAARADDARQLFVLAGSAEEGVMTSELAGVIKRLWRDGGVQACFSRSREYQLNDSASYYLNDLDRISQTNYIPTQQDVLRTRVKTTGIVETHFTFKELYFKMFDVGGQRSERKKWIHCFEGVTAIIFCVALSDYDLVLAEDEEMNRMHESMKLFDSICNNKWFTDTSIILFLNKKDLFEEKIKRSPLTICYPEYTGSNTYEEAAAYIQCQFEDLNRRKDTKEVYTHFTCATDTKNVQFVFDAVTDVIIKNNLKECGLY
# * hit, by the source's call.
SMILES,GIV-Gai inh
CCOc1cc(C2C(C#N)=C(N)Oc3n[nH]c(C(C)C)c32)cc([N+](=O)[O-])c1OC(=O)N1CCOCC1 (stereo not drawn),102
CCCCCCCNC(=O)c1cccnc1SCc1ccccc1Cl,115
Fc1cccc(F)c1CSc1nnc(-c2ccco2)n1-c1ccccc1,102
CN1CCN(C(=O)c2ccc(-c3ccc(F)cc3)nc2)C(c2ccccc2)C1 (stereo not drawn),111
COc1ccc(NC2=NC(C)(C)Cc3ccccc32)cc1,111
CN(C)c1ccc(C(=O)CC2(O)C(=O)N(Cc3cccc4ccccc34)c3ccccc32)cc1 (stereo not drawn),105
O=C(NCc1cccs1)c1cc2c(s1)CN(C1CC1)C2,101
Cc1csc(-c2cc(S(=O)(=O)N(Cc3cccs3)C3CCCC3)c(C)s2)n1,96
N#Cc1ccc(Oc2ccc(C3(c4ccc(Oc5ccc(C#N)c(C#N)c5)cc4)OC(=O)c4ccccc43)cc2)cc1C#N,114
Cc1ccc(C(=O)CSc2n[nH]c(-c3ccco3)n2)c(C)c1,106
CCn1c(C)c(-c2nc(C3CC3)no2)c(S(=O)(=O)N2CCCC(C)C2)c1C (stereo not drawn),102
O=C(NCCOc1ccc(-c2ccc(F)cc2)nn1)C1CC1,98
COc1ccccc1NNC(=O)C(O)(c1ccccc1)c1ccccc1,116
Cc1ccc(S(=O)(=O)N2CCC3(CC2)NCCN=C3NCc2ccccc2)cc1,96
CC(=O)OC1CCN(C(=O)NC(C)C)CC1,103
COc1ccc2c(c1)C1(Nc3ccccc3C(=O)N1Cc1ccccc1)C(=O)N2 (stereo not drawn),109
CC1(C)COP(=O)(C(Nc2ccc(Cl)cc2)c2ccc(O)cc2)OC1 (stereo not drawn),103
c1cc2c(cc1-c1noc(-c3ccc4c(c3)OCO4)n1)ncn2CCN1CCCC1,113
Cc1nc(N2CCC(C)CC2)c2c(C)c(C(=O)N3CCCC3)sc2n1,101
O=C(Nc1nnc(SCc2nnc(-c3ccccc3)o2)s1)c1ccccc1Br,101
CCc1cc(CN2CCNC(=O)C2)on1,102
CCCCSc1nnc(-c2ccccc2N)c(=O)[nH]1,108
CC(=O)C1=C(c2ccccc2)S/C(=C2/C(=S)C(C)(C)Nc3cc(C)c(C)cc32)S1,104
COC(=O)C1=C(C(=O)OC)SC(=C2C(=S)C(C)(C)N(C(=O)CN3C(=O)CCC3=O)c3ccc(C)cc32)S1,108
O=C(NC1CC1)c1csc(N2CCCCC2)n1,105
CCOC(=O)c1ccc(-n2c(=S)sc3c2nc(SCC(=O)N(CC)CC)n2c4ccccc4nc32)cc1,103
COc1cc(C(=O)OCCN2C(=O)C3C4c5ccccc5C(c5ccccc54)C3C2=O)cc(OC)c1OC (stereo not drawn),118
COc1ccc(NC(=O)c2c(NC(=O)C(F)(F)F)sc3c2CCC3)cc1,108
Cc1nc(CCNC(=O)[C@H]2CCCN2S(=O)(=O)c2cccs2)cs1,102
O=S(=O)(c1cccn2c(SCc3ccc(F)cc3)nnc12)N1CCCC1,99
N#Cc1c(N)nc2sc(C(=O)c3ccc([N+](=O)[O-])cc3)c(N)c2c1-c1ccccc1,111
COc1ccc(CNc2cc(NCCCO)c([N+](=O)[O-])c3nonc23)cc1,106
CCCCCOc1ccc(N2C(=O)CSC23C(=O)N(CN2CCOCC2)c2ccccc23)cc1 (stereo not drawn),106
Cc1ccc(-c2nc3c4cc(I)ccc4c4ccccc4c3[nH]2)cc1,103
O=C(COC(=O)c1ccc(N2C(=O)C3C4C=CC(C4)C3C2=O)cc1)c1cccc([N+](=O)[O-])c1 (stereo not drawn),101
COc1ccc(CN2C(=O)C3C(c4ccc(Cl)cc4)OC4(C(=O)c5ccccc5C4=O)C3C2=O)cc1 (stereo not drawn),111
Fc1ccc(-c2cnc3ccccc3n2)cc1,106
Cc1ccc(CNC(=O)C2(C)CCCN(C(=O)NC3COc4ccccc4C3)C2)cc1 (stereo not drawn),103
O=S(=O)(c1ccc(F)cc1)N1CCN(c2ncnc3c2nnn3-c2ccc(F)cc2)CC1,98
O=c1c2cn[nH]c2nc(SCc2nc(-c3ccc(F)c(Cl)c3)no2)n1-c1ccccc1,99
Cc1ccc(C)c(C(=O)CN2C3=NCCN3c3ccccc32)c1,114
COCCn1c(C2CCN(C(=O)c3ccc(C(F)(F)F)s3)C2)nc2cccnc21 (stereo not drawn),106
Cc1[nH]nc(-c2c(C)sc(C)c2S(=O)(=O)Nc2ccc(Cl)cc2)c1C,98
CC(=O)NCCN1C(=O)C(=O)/C(=C(\O)c2ccc(Cl)cc2)C1c1ccccc1F (stereo not drawn),119
Cc1ccc2nc(COc3ccccc3NC(=O)Nc3cccc(Cl)c3)cc(=O)n2c1,101
CCOC(=O)C1=NNC2C(=O)N(c3cccc(C)c3C)C(=O)C12 (stereo not drawn),114
COc1ccc(Cl)cc1-n1c(=S)sc2c1nc(=S)n1c3ccccc3[nH]c21,105
Cc1ccsc1C1Nc2ccc3ncccc3c2C2=C1C(=O)CCC2 (stereo not drawn),107

# 2 entries from above, with values ahead of the structure.
GIV-Gai inh	Structure
98	Cc1[nH]nc(-c2c(C)sc(C)c2S(=O)(=O)Nc2ccc(Cl)cc2)c1C
119	CC(=O)NCCN1C(=O)C(=O)/C(=C(\O)c2ccc(Cl)cc2)C1c1ccccc1F (stereo not drawn)

# Further structures follow:
SMILES,GIV-Gai inh
COC(=O)c1sccc1NC(=O)Cn1c(C)cc(C)c(-c2nc(-c3ccc(F)cc3)no2)c1=O,115
O=C(Oc1ccccc1)c1ccc2nc(-c3ccccc3)c(-c3ccccc3)nc2c1,109
c1ccc(Oc2nc3ccccc3n3cnnc23)cc1,99
CCN(CC)CCn1c(=S)[nH]c2cc(C(=O)N3CCC(O)(c4cccc(C(F)(F)F)c4)CC3)ccc2c1=O,113
CC(C)N(C(=O)CO[C@@H]1[C@H]2OC(C)(C)O[C@H]2O[C@@H]1C1COC(C)(C)O1)c1ccccc1 (stereo partly drawn),117
Cc1n[nH]c(C)c1S(=O)(=O)N1CCCN(c2nc3cccnc3s2)CC1,101
Fc1ccc(-c2nc(-c3ccc(-n4ccnc4)nc3)no2)cc1,102
CCc1nc(CN2C(=O)COc3cc(S(=O)(=O)N4CCCCC4CC)c(C)cc32)no1 (stereo not drawn),101
O=C(NCC1CCCO1)c1cc(N2CCCC2)n2nccc2n1 (stereo not drawn),190
COC(=O)c1c(-c2ccccc2)csc1NC(=O)CSc1nnc2sc3ccccc3n12,105
CC1CCN(S(=O)(=O)c2ccc(-c3nnc(C(=O)NCCCN4CCOCC4)o3)cc2)CC1,99
Cc1cc(C)c2c(n1)sc1c(=O)n(CC(=O)Nc3cc(Cl)ccc3C)cnc12,96
CCc1ccccc1-n1c(SCC(=O)Nc2ccc(OC)cc2OC)nc2n[nH]c(C)c2c1=N,111
Cc1ccc(CNC(=O)Cn2c3c(c(-c4ccccc4)cc2=O)CCCC3)cc1,107
CS(=O)(=O)N1CCC(c2noc(-c3cccc(F)c3)n2)CC1,97
Cc1ccc2c(c1)-c1c(ssc1=S)C(C)(C)N2C(=O)Cc1ccccc1,111
CC1(C)Cc2[nH]c(=O)c(C#N)cc2CO1,113
Clc1ccc(C2Nc3ccccc3C(c3ccccc3)(c3ccccc3)O2)c(Cl)c1 (stereo not drawn),110
COc1ccc(CCNC(=O)CSc2nc3ccccc3nc2Cc2ccc(F)cc2)cc1OC,111
Cc1ccc(C(=O)Nc2c(C)nc3sccn3c2=O)cc1,109
COc1ccc(NC(=O)c2sc3nc4c(c(-c5cccs5)c3c2N)CCCC4)cc1,108
Cc1ccc2c(c1)-c1c(ssc1=S)C(C)(C)N2C(=O)CSc1nc(C)cc(C)n1,114
Clc1cccc(-n2nnnc2C2(N3CCOCC3)CCCC2)c1,108
Cn1c(SCc2ccccc2)nc2cc(-c3ccccc3)sc2c1=O,101
O=C1CN(C(=O)c2ccccc2)C(c2cccc([N+](=O)[O-])c2)N1O (stereo not drawn),109
N#Cc1c2n(c3c(=O)n(CC(=O)c4ccc(Br)cc4)cnc13)CCCC2,114
O=C(Nc1cccc(OCc2cc(=O)n3ccccc3n2)c1)C1CCCCC1,111
CCSc1nc2ccc(NS(=O)(=O)c3ccc(F)c(F)c3)cc2s1,103
CCC1CCCCN1C(=O)CCN1C(=O)/C(=C/c2cc(OC)c(OC)c(OC)c2)SC1=S (stereo not drawn),114
COC(=O)CN1C(c2ccc(OC)cc2)=Nc2ccc(Br)cc2C1c1ccccc1 (stereo not drawn),118
CCOC(=O)N1CCN(C(=O)c2ccc3c(=O)n(Cc4ccc(OC)cc4)c(=S)[nH]c3c2)CC1,105
CCc1ccc(S(=O)(=O)Nc2ccc(CCc3nc4ccccc4n3CC)cc2)cc1,125
COc1ccccc1Oc1ccnc(-c2cccc(C(=O)Nc3cccc(C)c3)c2)n1,106
COc1ccc(C)cc1NC(=O)c1cc(S(=O)(=O)N2CCCc3ccccc32)ccc1F,104
CC(=O)NCC(=O)N(CCc1c[nH]c2ccccc12)C1(C(=O)Nc2c(C)cccc2C)CCCCC1,107
CCc1nc(-c2csc(S(=O)(=O)N3CCCC(C(=O)NC4CCC(C)CC4)C3)c2)no1 (stereo not drawn),104

# At a glance, 18 of the compounds above.
SMILES,GIV-Gai inh
Cc1ccc2c(c1)-c1c(ssc1=S)C(C)(C)N2C(=O)Cc1ccccc1,111
CC1(C)Cc2[nH]c(=O)c(C#N)cc2CO1,113
Clc1ccc(C2Nc3ccccc3C(c3ccccc3)(c3ccccc3)O2)c(Cl)c1 (stereo not drawn),110
COc1ccc(CCNC(=O)CSc2nc3ccccc3nc2Cc2ccc(F)cc2)cc1OC,111
Cc1ccc(C(=O)Nc2c(C)nc3sccn3c2=O)cc1,109
COc1ccc(NC(=O)c2sc3nc4c(c(-c5cccs5)c3c2N)CCCC4)cc1,108
Cc1ccc2c(c1)-c1c(ssc1=S)C(C)(C)N2C(=O)CSc1nc(C)cc(C)n1,114
Clc1cccc(-n2nnnc2C2(N3CCOCC3)CCCC2)c1,108
Cn1c(SCc2ccccc2)nc2cc(-c3ccccc3)sc2c1=O,101
O=C1CN(C(=O)c2ccccc2)C(c2cccc([N+](=O)[O-])c2)N1O (stereo not drawn),109
N#Cc1c2n(c3c(=O)n(CC(=O)c4ccc(Br)cc4)cnc13)CCCC2,114
O=C(Nc1cccc(OCc2cc(=O)n3ccccc3n2)c1)C1CCCCC1,111
CCSc1nc2ccc(NS(=O)(=O)c3ccc(F)c(F)c3)cc2s1,103
CCC1CCCCN1C(=O)CCN1C(=O)/C(=C/c2cc(OC)c(OC)c(OC)c2)SC1=S (stereo not drawn),114
COC(=O)CN1C(c2ccc(OC)cc2)=Nc2ccc(Br)cc2C1c1ccccc1 (stereo not drawn),118
CCOC(=O)N1CCN(C(=O)c2ccc3c(=O)n(Cc4ccc(OC)cc4)c(=S)[nH]c3c2)CC1,105
CCc1ccc(S(=O)(=O)Nc2ccc(CCc3nc4ccccc4n3CC)cc2)cc1,125
COc1ccccc1Oc1ccnc(-c2cccc(C(=O)Nc3cccc(C)c3)c2)n1,106

# Later entries:
SMILES,GIV-Gai inh
CC(C)NC(=O)CC1CCN(S(=O)(=O)c2cccs2)CC1,107
O=C(CSc1nc2ccccc2c(=O)n1-c1ccc(C(=O)N2CCOCC2)cc1)NCc1ccccc1Cl,106
O=C(CCc1nc(CSc2nc3cc(Cl)ccc3o2)no1)Nc1nncs1,106
CCc1onc(C)c1C1CCCN1Cc1ccc(OC)c(Br)c1 (stereo not drawn),111
Cc1noc(C)c1C1CCCN1Cc1ccc(F)c(F)c1 (stereo not drawn),105
CCOC(=O)C1=C(C)NC2=C(C(=O)C(C(=O)OCC)C(c3ccccc3OC)C2)C1c1ccc([N+](=O)[O-])cc1 (stereo not drawn),97
N#CC1=C(N)OC2=C(C(=O)CC(c3ccco3)C2)C1c1cn[nH]c1-c1ccc(F)cc1 (stereo not drawn),114
CCOc1cccc(CNC(=O)c2sccc2N(C)S(=O)(=O)c2ccccc2)c1,97
Cc1csc(-c2cc(S(=O)(=O)N3CCC(C)CC3)cn2CC(=O)N2CCCCC2)n1,109
CCOC(=O)[C@@H]1[C@@H](c2cccs2)C(C#N)=C(SCC(=O)NC2CC2)N[C@]1(C)O,111
CCCCNC(=O)Cn1c(=O)c(=O)n(C)c2ncccc21,103
CCC(C)NC(=O)c1cccc(Oc2cc(-c3ccc(OC)cc3)ncn2)c1 (stereo not drawn),100
CCOc1ccc(NC(=O)C2=C(C)NC(=O)NC2c2cc(OC)ccc2OC)cc1 (stereo not drawn),109
CC1(C(=O)NCc2ccc(F)cc2)CCCN(C(=O)NC2COc3ccccc3C2)C1 (stereo not drawn),120
CC(C)NC(=O)CCn1c(=O)c2ccccc2n2c(SCc3ccc(Cl)cc3)nnc12,96
COC(=O)c1ccc2c(=O)n(-c3ccc(OC)c(OC)c3)c(N3CCCC3)nc2c1,100
CC(=O)Oc1cccc(C2C3=C(c4ccccc4C3=O)N(C(C)=O)c3c2c(=O)n(C)c(=O)n3C)c1 (stereo not drawn),107
CCOc1ccc(CN2C(=O)c3ccccc3CC2(C)C(=O)NCc2ccccc2)cc1 (stereo not drawn),104
COc1ccc(C(=O)N2c3cc(C)ccc3-c3c(ssc3=S)C2(C)C)cc1OC,116
Cc1cc(C)c2c(c1)-c1c(ssc1=S)C(C)(C)N2CC(=O)c1ccccc1,114
O=C(CSc1nc2cc(C(=O)NCCCN3CCOCC3)ccc2c(=O)n1-c1ccc(F)cc1)c1ccccc1,108
COC(=O)c1c(-c2ccc(F)cc2)noc1NCCC1=CCCCC1,106
CC1(CNS(=O)(=O)c2ccc(F)c(F)c2)CCOCC1,96
O=c1sc2c(s1)SC1CCCCCCCCCCC1S2 (stereo not drawn),105
C=CCNC(=O)c1ccccc1NC(=O)c1nsc2ccccc12,101
CN(C)S(=O)(=O)c1ccc(-c2nnc(C(=O)NCc3ccc4c(c3)OCO4)o2)cc1,101
O=C(CSc1nc2ccccc2c(=O)n1CC1CCC(C(=O)NCCc2ccccc2)CC1)Nc1nccs1 (stereo not drawn),107

# These rows are one share of the data. The share of hits here may be higher or lower than overall.
